# Six1-Eya2 blk = inhibitors of human Six1/Eya2 interaction; Q15475+O00167; AID 651725; AlphaScreen GST-Six1/His-Eya2 binding, biochemical; stronger effect = lower value; control for the full effect not named in the record; 360,000 tested, 0.56% active; activity change, % (test concentration not listed); in the data active = activity change below about -65%; inconclusive = about -30% to -65%; inactive = above about -30%; note: % is set by controls: 0 for no effect and ±100 for the full control effect; compound concentration not given in the record
#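 AlphaScreen luminescence read after one hour at 37 °C in darkness. Pin-transferred compounds met GST-Six1 and His-Eya2 protein (5X stock 250 nM/500 nM) plus glutathione donor and Ni-chelate acceptor beads (5X, 50 ug/mL).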
# D2 potentiator = positive allosteric modulators of human D2 dopamine receptor; DiscoveRx D2 beta-arrestin cells, luminescence, 90 min; 100% = 57 uM dopamine signal; AID 624464; P14416; potentiation, % (no concentration beside the values); 360,000 tested, 0.23% active; active = potentiation of 50% or more; inconclusive = 30% to 50%; inactive = 30% or less;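 note: compound concentration not given in the record; tested on top of an EC20 dose of dopamine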
# Target sequence (P14416 whole entry, looked up): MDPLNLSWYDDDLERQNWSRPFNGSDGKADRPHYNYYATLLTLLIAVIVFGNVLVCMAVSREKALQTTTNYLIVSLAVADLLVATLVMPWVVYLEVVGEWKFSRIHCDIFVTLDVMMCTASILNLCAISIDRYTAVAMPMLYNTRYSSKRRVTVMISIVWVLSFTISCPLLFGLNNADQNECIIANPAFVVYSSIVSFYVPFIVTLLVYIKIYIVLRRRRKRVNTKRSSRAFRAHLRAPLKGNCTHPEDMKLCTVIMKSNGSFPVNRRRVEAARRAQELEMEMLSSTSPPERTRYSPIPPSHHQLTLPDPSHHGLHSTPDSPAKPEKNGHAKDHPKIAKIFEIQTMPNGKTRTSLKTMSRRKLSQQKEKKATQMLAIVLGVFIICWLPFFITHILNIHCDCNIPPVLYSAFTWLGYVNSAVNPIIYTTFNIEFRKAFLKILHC
#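 PathHunter beta-arrestin assay in DiscoveRx D2 cells. Compounds were added with an EC20 of dopamine (50 nM final) for 90 min at 37 deg C. Luminescence was read 1 h after detection reagent, with 57 uM dopamine as the EC100 control.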
# TRPML1 agonist = agonists of human TRPML1 channel; Q9GZU1; TRPML1-expressing cells, Ca2+ dye fluorescence, FDSS; host cell line not named in the record; reference of the full effect not given here; activation, % (concentration not given with the values); 410,000 tested, 0.12% active; AID 624414; in the data active = activation above about 50%; inconclusive = about 30% to 50%; inactive = below about 30%; note: 0% is about no effect; the text of the record puts the active cut at 80%
# Target sequence (Q9GZU1 whole entry, looked up): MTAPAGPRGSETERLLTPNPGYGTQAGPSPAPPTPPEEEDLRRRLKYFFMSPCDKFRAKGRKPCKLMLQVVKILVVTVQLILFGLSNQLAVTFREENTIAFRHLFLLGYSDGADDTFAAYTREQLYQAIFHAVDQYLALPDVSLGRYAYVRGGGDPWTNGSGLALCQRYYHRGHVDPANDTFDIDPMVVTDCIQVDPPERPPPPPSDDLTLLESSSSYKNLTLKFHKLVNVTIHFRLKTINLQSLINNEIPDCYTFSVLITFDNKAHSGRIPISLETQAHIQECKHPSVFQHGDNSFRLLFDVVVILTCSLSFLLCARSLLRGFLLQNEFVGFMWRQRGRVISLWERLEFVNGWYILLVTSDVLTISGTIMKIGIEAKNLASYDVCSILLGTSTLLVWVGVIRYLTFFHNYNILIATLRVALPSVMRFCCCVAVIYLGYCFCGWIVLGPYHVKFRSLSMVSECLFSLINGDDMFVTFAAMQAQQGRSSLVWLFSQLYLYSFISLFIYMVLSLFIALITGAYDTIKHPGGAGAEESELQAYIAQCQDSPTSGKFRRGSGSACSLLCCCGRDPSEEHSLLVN
#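 TRPML1-DL cells, Tet-induced overnight (~16 h, 37 degrees C), loaded 45-90 min at room temperature with Ca8 no-wash calcium dye plus quencher. FDSS fluorescence: 10 s baseline, compound pin-transfer, 110 s agonist read, then EC80 54-4 (4uM final) and 110 s antagonist read.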
# D2 ag = activates the human D2 dopamine receptor; activation, % (concentration not given with the values); AID 624465; DiscoveRx PathHunter D2 beta-arrestin, luminescence, 90 min; 100% = 57 uM dopamine signal; 360,000 tested, 0.084% active; in the data active = activation above about 40%; inconclusive = about 15% to 40%; inactive = below about 15%; note: compound concentration not given in the record; the text of the record calls up to 30% inactive
#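 Agonist mode: compounds alone added to overnight-plated D2 PathHunter cells for 90 min at 37 C, with 57 uM final dopamine (EC100) defining full response. Beta-arrestin recruitment detected by chemiluminescent reagent, read after 1 h at ambient temperature.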
# PINK1 modulator = changes PINK1 expression | PINK1 immunofluorescence, high-content cytometry, 24 h | Potency, µM (highest dose often 76.6 µM), inactives show at the highest dose activation (PINK1 increase), actives largely listed as activators | 410,000 tested, 0.2% active; active = well fitted activation curve with a large enough effect; inconclusive = small, poorly fitted or top-dose-only effect; inactive = flat fitted curve, though single readings scatter; cell line not stated here;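 note: potency is the fitted concentration of half-maximal effect; % of control where 0% means no effect; nearly all actives have a fitted effect of over 65% in size; a mitochondrial uncoupler was the plate control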
#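 Decision-based qHTS: stable cells, 24 h exposure to five compound concentrations, CCCP as control. Fixed cells stained for PINK1 plus nuclear, mitochondrial and cell markers, cytometer read.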
# CtBP-E1A inh = blocks the CtBP interaction with E1A; AlphaScreen GST-E1A/His-CtBP binding, 1536-well; stronger effect = lower value; control for the full effect not named in the record; activity change, % (test concentration not listed); 340,000 tested, 0.49% active; in the data active means activity change below about -65%; inconclusive means about -30% to -65%; inactive means above about -30%; note: % is set by controls: 0 for no effect and ±100 for the full control effect; compound concentration not given in the record
#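 AlphaScreen with 125 nM GST-E1A and 125 nM His-CtBP (5X stocks) in Tris pH 8.0, 300 mM NaCl, BSA, Tween 20, TCEP. Compounds preincubated 2 h at 37 deg C, then glutathione donor/nickel acceptor beads added for 1 h at 37 deg C in dark.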
# * = called active by the depositor; u = inconclusive; x = not tested or not shown; & = joins results of further samples; [ ] = remark or other dose.
SMILES,Six1-Eya2 blk,D2 potentiator,TRPML1 agonist,D2 ag,PINK1 modulator,CtBP-E1A inh
CN(Cc1ccc2c(c1)OCO2)C(=O)c1cc(-c2ccccc2)c(N2CCOCC2)s1,-19.4,2.7,-1.0,-2.2,5.3%,x
C[C@]12C=CC(=O)C=C1CC[C@@H]1C2=CC[C@]2(C)[C@@H](C(=O)CN3CCN(c4cc(N5CCCC5)nc(N5CCCC5)n4)CC3)CC[C@@H]12,-18.4,-26.6,0.6,-8.4,2.4%,-15.3
Cc1nc2ccc(S(=O)(=O)NCC(=O)N3CCC(C)CC3)cc2s1,-3.2,-0.5,-1.3,-2.3,-0.9%,-8.3
COn1c(-c2ccc(Cl)cc2)nc2ccc(Cl)cc21,12.1,-2.1,2.2,-2.7,-2.4%[38.3 µM],5.5
COc1ccc2nc(NC(=O)CSc3ccccc3)sc2c1,-3.8,-2.9,-0.1,-1.0,-0.4%,-1.4
Fc1cnc(N2CCc3ccccc32)nc1N1CCc2ccccc21,5.0,-4.2,-0.6,0.2,-2.7%,-2.7
COc1cc(/C=C/C(=O)O)cc(S(=O)(=O)N(C)CCO)c1OC,3.9,-14.5,-0.4,-1.8,3.5%,-2.6
CCC(C)(C)NC(=O)C(c1ccncc1)N(Cc1ccc(C)cc1)C(=O)c1csnn1 (configuration not stated),0.1,-11.5,1.4,-0.4,-2.4%,-4.5
Cc1ccc(NC(=O)C2CCN(S(=O)(=O)c3ccc4c(c3)OCCCO4)CC2)nc1,-4.1,-14.1,-0.3,-0.7,-0.5%,4.2
CCC(C(=O)NCc1ccco1)n1nc(-c2ccc(OC)cc2)ccc1=O (configuration not stated),-10.7,-6.8,0.9,-1.7,-1.7%,-2.4
COc1ccc(C(=O)Nc2sc(C)c(-c3ccccc3)c2C#N)cc1OC,-4.6,15.3,2.5,0.2,0.5%,-4.3
COc1cccc(OCc2cc(C(=O)N3CCN(C)C(c4ccccc4)C3)no2)c1 (configuration not stated),-4.5,-9.9,0.0,-5.6,-1.0%,x
CCOc1ccc(C(=O)CC(Sc2ccc(C)cc2)C(=O)O)cc1 (configuration not stated),-17.6,-1.4,0.1,-9.7,-1.3%,-14.1
CC(C)C[C@@H](CN1CCCC1CN1C(=S)NC[C@@H]1Cc1ccccc1)N1C[C@H](Cc2ccc(O)cc2)N(CCc2ccccc2)C1=S (some centres not stated),-8.3,x,-0.1,x,1.1%,0.7
Cc1ccc(NS(=O)(=O)c2ccc(C(=O)NNC(=O)c3ccccc3O)cc2)cc1,u,2.6,1.9,-2.9,1.9%,u
C[C@H](CO)N1C[C@H](C)[C@@H](CN(C)C(=O)Nc2ccc3c(c2)OCO3)Oc2c(NC(=O)Nc3ccc(C(F)(F)F)cc3)cccc2C1=O,-22.9,u,0.9,u,-1.0%,-3.8
COc1ccc(C(=O)Nc2ccc3nc(N4CCOCC4)sc3c2)cc1OC,-5.0,2.3,3.8,6.2,4.7%,-1.7
COc1cccc(OC)c1C(=O)NNC(=O)c1ccccc1-n1cccc1,2.9,-0.7,0.3,-4.7,1.9%,0.0
CC1(C)CC(=O)C2=C(C1)OC(N)=C(C#N)C21C(=O)N(Cc2ccccc2Cl)c2ccccc21 (configuration not stated),-1.1,-3.4,9.4,-1.5,13.3%,3.1
CCOC(=O)Cn1c(=O)c(-c2cc(Br)ccc2N)nc2ccccc21,-1.5,2.3,-0.2,-0.7,u,2.7
COc1ccc(-c2csc(NC(=S)NC(=O)c3ccco3)n2)cc1Br,1.2,-8.6,-0.4,-0.7,0.3%,0.1
FC(F)(F)c1ccncc1-c1nnnn1-c1ccc(Cl)cc1,6.1,-3.5,-0.1,-6.0,0.6%,1.7
CCCCN1C(=O)N(c2ccc(Cl)cc2)C(C)(O)CC1(C)C (configuration not stated),9.7,-6.4,1.2,-2.9,3.7%,-1.3
COC(=O)/C(NC(C)=O)=C(\C)c1ccc(Cl)cc1,0.6,-9.9,-0.8,-0.3,6.2%[38.3 µM],9.4
O=C1C(=O)N(Cc2cccs2)c2ccccc21,-16.2,-25.8,3.2,-13.2,2.1%,4.1
CN(CC(=O)Nc1ccccc1Sc1ccccc1)Cc1nc2ccccc2c(=O)[nH]1,-0.4,-17.5,0.9,-0.3,-0.5%,-20.1
CCOc1cc(CNC2CCCC2)c(Cl)cc1OCC(=O)Nc1ccccc1,-0.8,-17.5,2.7,-3.1,0.3%,-0.5
CC1(C)C(=O)OC(c2cc(Br)ccc2O)C(C)(C)C1=O (configuration not stated),-5.6,-5.1,4.1,0.1,u,-16.1
Cn1nc(C(=O)NCC2COc3ccccc3O2)c2ccccc2c1=O (configuration not stated),-0.6,1.8,0.7,0.9,1.0%,2.3
Nc1nc(SCC(=O)Nc2ccc(C(F)(F)F)cc2)[nH]c(=O)c1NC(=O)c1ccc(F)c(F)c1,-2.2,-19.5,0.2,-4.3,1.7%,0.6
COc1ccc(-c2nc3c4ccccc4ccn3c2CC2CCCCC2)cc1OC,2.6,-15.9,2.4,-5.4,7.3%,-20.7
Nc1nc2c(ncn2[C@@H]2O[C@H](CNC(=O)[C@H](N)Cc3ccccc3)[C@@H](O)[C@H]2O)c(=O)[nH]1,11.6,-2.2,-0.5,-4.0,1.4%,2.5
CCCCCCn1cnc2c(c1=O)c1nc3ccccc3nc1n2Cc1cccs1,2.3,-19.7,-0.6,-4.3,3.4%,-0.5
CCCCCc1c(C)c(C#N)c2nc3ccccc3n2c1-n1ccnc1C,1.1,-1.8,1.5,-1.6,5.9%,1.1
COc1ccc(N(C(=O)CNC(=O)c2cccs2)C(C(=O)NCC2CCCO2)c2ccccc2)c(OC)c1 (configuration not stated),10.2,-21.0,-0.4,-6.0,-0.6%,-9.4
CC1CCN(S(=O)(=O)c2ccc(C(=O)Nc3sccc3C(N)=O)cc2)CC1,-10.3,-1.3,-0.8,1.2,2.3%,-5.1
CCOC(=O)C1CCCN(S(=O)(=O)c2c(C)noc2C)C1 (configuration not stated),1.1,-6.6,2.5,0.1,0.2%,9.6
COc1ccc(C2CC(c3ccccc3C)n3nc(N)nc3N2)cc1 (configuration not stated),5.7,-0.8,0.7,-8.3,-0.3%,-2.6
O=C(NCC1COc2ccccc2O1)C1CCC(CNc2c(N3CCCCC3)c(=O)c2=O)CC1 (configuration not stated),-3.8,-2.5,-1.1,-5.2,-0.5%,-0.7
O=C(NCCCn1ccnc1)c1ccc(S(=O)(=O)Nc2ccccc2)cc1,3.7,-4.7,0.1,-8.2,-0.6%,-0.4
O=C(CNc1ccc(Br)cc1)Nc1ccc(S(=O)(=O)N2CCCC2)cc1,-8.4,-19.8,-0.4,0.1,1.1%,-3.3
Cc1ccccc1N1C(=O)c2ccccc2C1Nc1cccnc1 (configuration not stated),7.2,-4.6,-0.1,-2.0,-0.8%,6.6
COc1ccccc1CC(=O)N1CCCc2ccccc21,10.9,5.5,-1.2,-1.8,-2.1%,11.4
COc1ccccc1CNC(=O)CN(c1ccc(C)cc1)S(=O)(=O)c1c(C)n[nH]c1C,0.8,-13.5,0.1,0.4,0.0%,-0.5
Cc1cc2c(cc1C)NC(=O)C(C)CN2 (configuration not stated),-7.6,-10.5,0.1,-7.3,5.5%,-2.3
CN(C)c1ccc(N=Nc2cccc(F)c2)cc1,-78.2*,-15.0,-0.2,-0.8,-0.5%,-67.1*
CC(C)(C)S(=O)(=O)c1nc2ccccc2s1,-10.6,-18.4,0.9,-1.1,-1.2%,-7.0
C=CCn1c(SCC(=O)Nc2ccc(NC(C)=O)cc2)nc2sc(C)c(C)c2c1=O,4.3,-1.3,1.2,-2.4,18.5%,-24.4
O=C1CCC(=O)N1CNc1cccnc1,9.6,0.2,-0.6,-1.1,-0.5%,-1.8
CCN(CC)S(=O)(=O)c1ccc(C)c(NC(=O)CSc2nnnn2C)c1,-0.6,-23.4,0.4,-1.8,3.2%,-2.1
CCCC(=O)Nc1ccc(S(=O)(=O)Nc2cc(C)nc(C)n2)cc1,3.3,14.6,0.5,-0.6,-0.9%,0.8
Cc1cc(C(=O)CSc2nnc(-c3ccco3)o2)c(C)n1-c1ccc2c(c1)OCCO2,-17.0,13.0,-0.5,2.0,-0.8%,-16.9
COc1ccc(NC(=O)N(C)C[C@H]2Oc3c(NC(=O)Cc4ccccc4)cccc3C(=O)N([C@H](C)CO)C[C@@H]2C)cc1,2.9,-11.7,-0.2,-3.3,3.3%,5.6
COc1ccc(/C(C)=N\Nc2nc(-c3ccccc3)cc(=O)[nH]2)cc1,2.4,-7.2,-0.6,-9.0,17.3%,-2.5
CCOc1ccc(CCN2C(=S)N([C@@H](CC(C)C)CN3CCC[C@@H]3CN3C(=S)NC[C@@H]3CC(C)C)C[C@@H]2CC(C)C)cc1,-5.4,-5.8,-0.3,-3.5,8.6%,9.0
CCn1cc(CN2CCCC(CO)(Cc3ccc(F)cc3)C2)c2ccccc21 (configuration not stated),-10.9,-24.6,1.7,-6.4,0.9%,-12.0
CC(C)[C@H](NC(=O)c1ccccc1Cl)C(=O)OCc1cc(=O)n2cc(Br)ccc2n1,14.1,-3.9,-0.9,-8.3,1.5%,0.2
CSc1ccc(CN(C)C(=O)c2cc(=O)[nH]c3ccccc23)cc1,7.9,-2.0,-0.1,1.8,2.6%,2.9
CC[C@]12c3[nH]c4ccccc4c3CCN1C(=O)C(CC(=O)NCCc1ccccn1)C[C@@H]2C(=O)N1CCN(C(=O)c2ccco2)CC1 (some centres not stated),-1.4,4.7,-0.4,-0.2,-0.1%,-11.8
Cc1ccc(NC(=O)CCC(=O)OCC(=O)c2ccc(Oc3ccc([N+](=O)[O-])cc3)cc2)cc1C,5.1,2.6,-0.4,-2.5,-1.5%,-1.3

# Arranged by SMILES length (descending): some entries from above.
SMILES,Six1-Eya2 blk,D2 potentiator,TRPML1 agonist,D2 ag,PINK1 modulator,CtBP-E1A inh
COc1ccc(NC(=O)N(C)C[C@H]2Oc3c(NC(=O)Cc4ccccc4)cccc3C(=O)N([C@H](C)CO)C[C@@H]2C)cc1,2.9,-11.7,-0.2,-3.3,3.3%,5.6
CSc1ccc(CN(C)C(=O)c2cc(=O)[nH]c3ccccc23)cc1,7.9,-2.0,-0.1,1.8,2.6%,2.9
COc1ccccc1CC(=O)N1CCCc2ccccc21,10.9,5.5,-1.2,-1.8,-2.1%,11.4

# The list continues.
SMILES,Six1-Eya2 blk,D2 potentiator,TRPML1 agonist,D2 ag,PINK1 modulator,CtBP-E1A inh
COc1ccc2nc(NC(=O)c3ccccc3O)sc2c1,3.5,-10.0,-0.1,1.8,-0.5%,1.1
O=c1c2ccccc2sn1-c1ccc(S(=O)(=O)N2CCCCC2)cc1,-4.1,1.5,1.7&0.2&-0.3,3.0,-0.4%&1.9%,-2.3
CN(C)S(=O)(=O)c1cccc(C(=O)Nc2cccnc2)c1,10.2,-5.2,0.6,3.0,2.4%,0.2
c1ccc(-c2c[nH]c(-c3ccccc3)c2)cc1,-12.6,-19.8,1.2,-2.1,1.4%,-6.4
N#Cc1c(N)nc2c(c1-c1cccnc1)CCCCC2,0.4,-7.8,-0.5,-0.4,-3.1%[38.3 µM],0.5
O=C(N/N=C/c1cccnc1)c1cc(C2CC2)nc2ccccc12,-0.2,3.8,-0.7,1.6,0.2%,-0.6
CC(C)n1nnnc1SCC(=O)Nc1ccccc1N1CCOCC1,-9.8,-4.3,0.3,-5.2,-0.3%,0.6
